Screens (PubChem)
Cruzain Triton – qHTS Assay for Promiscuous and Specific Inhibitors of Cruzain (with detergent). purified cruzain, Z-FR-AMC fluorescence, 0.01% Triton. actives 0.43% (n = 200,000). Cruzipain (Trypanosoma cruzi), P25779. Potency, µM, for inactives: max response, negative = inhibition, most hits filed as inhibitors;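 further: plate controls were neutral wells for no effect and buffer without enzyme for full effect; nearly all actives have a fitted effect of over 40% in size; top concentration of the series not given in the record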
Target sequence (P25779 123-467 limits assumed): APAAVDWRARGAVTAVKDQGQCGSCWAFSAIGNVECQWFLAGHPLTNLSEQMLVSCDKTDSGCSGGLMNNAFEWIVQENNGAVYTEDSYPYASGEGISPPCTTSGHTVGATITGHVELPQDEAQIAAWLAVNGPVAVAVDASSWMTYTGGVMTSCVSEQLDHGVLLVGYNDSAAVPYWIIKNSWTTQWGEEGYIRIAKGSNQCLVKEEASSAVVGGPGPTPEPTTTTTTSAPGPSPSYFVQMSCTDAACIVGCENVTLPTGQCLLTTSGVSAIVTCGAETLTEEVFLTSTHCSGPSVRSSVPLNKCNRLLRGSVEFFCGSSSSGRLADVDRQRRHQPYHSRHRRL
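15 min RT preincubation of 1.5 nM cruzain with compound, then 2 uM Z-FR-AMC added; kinetic AMC fluorescence, 60 s delta. Triton X-100 0.01%, pH 5.5.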
StopGo reporter – High Throughput Screening for Foot and Mouth Disease Virus Antivirals | human cells with a luciferase reporter of 2A StopGo recoding; control for the full effect not named in the record | Potency, µM (series often up to 57.9 µM), for the others: top-dose signal change, negative = less light | actives 1.2% (n = 410,000) | AID 1159524, 2015; active = well fitted falling curve with a large enough effect; inconclusive = small, poorly fitted or top-dose-only effect; inactive = no such curve, though single readings can be large or run the other way; tested in HEK293T cells; further: on the % scale 0 is the no-effect control and ±100 the full control effect; nearly all actives have a fitted effect of over 45% in size; luciferase light after 4 h
NS1 function inh – qHTS Assay for Inhibitors of Influenza NS1 Protein Function. S. cerevisiae slowed by influenza A NS1, growth recovery by OD600. Potency, µM (titrated, usually from 46.1 µM), inactives show top-dose activity, positive = more growth. actives 0.4% (n = 270,000); active means well fitted rising curve with a large enough effect; inconclusive means small, poorly fitted or top-dose-only effect; inactive means no such curve, though single readings can be large or run the other way; further: nearly all actives have a fitted effect of over 50% in size
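In this qHTS, NS1 from influenza A is expressed in budding yeast, where it slows growth. Cells are switched from glucose to 2% galactose medium (pH 6.0, -URA), treated with compound, and growth recovery is read at OD600.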
SARS PLpro yeast – qHTS of Yeast-based Assay for SARS-CoV PLP. S. cerevisiae expressing SARS-CoV PLpro, growth rescue; control for the full effect not named in the record. Potency, µM (highest dose often 32.9 µM), for inactives: at the highest dose activity, positive = growth rescue. actives 0.19% (n = 330,000); active means well fitted rising curve with a large enough effect; inconclusive means small, poorly fitted or top-dose-only effect; inactive means no such curve, though single readings can be large or run the other way; further: 0% is about no effect; nearly all actives have a fitted effect of over 55% in size; growth read by luminescence after 48 h
Marburg entry inh – qHTS for inhibitors of binding or entry into cells for Marburg Virus; Marburg virus pseudotyped entry inhibition, cell reporter; control for the full effect not named in the record; about a third of the inactives were read at about 46 µM; Potency, µM (top dose mostly 37.8 µM), for inactives: top-dose activity change, negative = inhibition, actives largely listed as inhibitors; actives 1.8% (n = 300,000); active = well fitted inhibition curve with a large enough effect; inconclusive = small, poorly fitted or top-dose-only effect, or effect the other way; inactive = flat fitted curve, though single readings scatter; tested in HEK293 cells; about a fifth of its hits are not listed in these tables; further: on the % scale 0 is the no-effect control and ±100 the full control effect; luciferase read-out
LASV entry inh – qHTS for Inhibitors of binding or entry into cells for Lassa Virus | Lassa virus pseudotype entry inhibition, cell reporter; control for the full effect not named in the record | Potency, µM (doses to about 37.9 µM), for inactives: at the highest dose activity change, negative = inhibition, usual class: inhibitors | actives 1.2% (n = 300,000); active means well fitted inhibition curve with a large enough effect; inconclusive means small, poorly fitted or top-dose-only effect, or effect the other way; inactive means flat fitted curve, though single readings scatter; tested in HEK293 cells; further: on the % scale 0 is the no-effect control and ±100 the full control effect; nearly all actives have a fitted effect of over 50% in size; luciferase read-out
Cruzain inh noDet – qHTS Assay for Promiscuous and Specific Inhibitors of Cruzain (without detergent). Potency, µM, inactives show max response, negative = inhibition, actives largely listed as inhibitors. actives 2.3% (n = 200,000). Cruzipain (Trypanosoma cruzi), P25779. AID 1476, 2009. purified cruzain, Z-FR-AMC fluorescence, no detergent;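 further: plate controls were enzyme without inhibitor for no effect and buffer without enzyme for full effect; nearly all actives have a fitted effect of over 40% in size; top concentration of the series not given in the record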
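Detergent-free condition (0.00005% Triton X-100) in acetate buffer pH 5.5 with DTT. 1.5 nM enzyme and compound were pre-mixed 15 min, then 2 uM Z-FR-AMC substrate added; reaction progress from fluorescence change between first and third reads (60 s).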
RE007 growth inh – qHTS Assay for Inhibitors of the HIV-1 protein Vpr | S. pombe RE007 Vpr strain, BacTiter-Glo ATP luminescence, 24 h; control for the full effect not named in the record | Potency, µM (series often up to 92.2 µM), for inactives: top-dose activity change, negative = less growth | actives 0.21% (n = 360,000) | AID 651644, 2012; active = well fitted falling curve with a large enough effect; inconclusive = small, poorly fitted or top-dose-only effect; inactive = no such curve, though single readings can be large or run the other way;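 further: on the % scale 0 is the no-effect control and ±100 the full control effect; nearly all actives have a fitted effect of over 50% in size; the assay follows cell death caused by Vpr and the record does not say whether a fall means rescue or toxicity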
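Fission yeast strain RE007, carrying one chromosomally integrated HIV-1 vpr copy, was seeded at OD 0.01 in PMG+AL medium with 23 nL pinned compound. After 24 h at 30 °C and 99% humidity, viability was read by BacTiter-Glo luminescence.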
* hit, by the source's call; ? = inconclusive; nt = not tested or not shown; & = joins results of further samples; [ ] = remark or other dose. Unless noted, the call rests on the fitted dose curve; in most records, active means well fitted curve in the direction sought with a large enough effect; inconclusive means small, poorly fitted or top-dose-only effect, or another doubt; inactive means no such curve, though single readings can be large; an effect the other way counts as inactive or inconclusive. Potency means the concentration at half of the fitted maximal effect.

Screens in order – Cruzain Triton, SARS PLpro yeast, NS1 function inh, RE007 growth inh, StopGo reporter, Cruzain inh noDet, LASV entry inh, Marburg entry inh
Cc1nnc(Sc2nc3c(c(=O)n(C)c(=O)n3C)n2Cc2ccc(Cl)cc2)s1
 : -1.3%, 1%, -9%, -17%, -23%, ?, -1%&9%, 2%&29%
CN(C)S(=O)(=O)c1cccc(NC(=O)Cn2cnc3ccccc3c2=O)c1
 : 2.8%, 2%, -1%, 5%, 16%, -15%, 0%, 18%
CCOC(=O)c1sc2nc(NC(=O)C3CC3)sc2c1C
 : -4.8%, 12%, -2%, -4%, 28%, 5%, nt, nt
COc1ccc(C2(O)CN(c3ccc(C)cc3)C3=[N+]2CCCC3)cc1 (stereo unspecified)
 : nt, 0%, 0%, -6%, -17%, nt, -24%, -26%[46.1 µM]
COc1cccc(CNC(=O)CCC2CCCN(C(=O)CCc3c(C)noc3C)C2)c1 (stereo unspecified)
 : nt, 0%, 5%, -4%, 8%, nt, 6%[46.1 µM], 6%[46.1 µM]
Cn1cnnc1SC(C(=O)Nc1cc(Cl)cc(Cl)c1)c1ccccc1 (stereo unspecified)
 : -9.4%, 3%, 6%, -6%, -9%, -1%, 9%, ?
Cc1cccc(N2C(=O)C(Cc3ccccc3)NC2=S)c1 (stereo unspecified)
 : 0.2%, -4%, 12%, 6%, -11%, -4%, -7%, 1%
COc1ccc(C(CNC(=O)c2ccc(C)c(S(=O)(=O)Nc3ccccc3OC)c2)N2CCCC2)cc1 (stereo unspecified)
 : nt, 8%, ?, -18%, 1%, nt, -19%[46.1 µM], ?
CC(=O)N1N=C(c2ccccc2)OC1c1cccnc1 (stereo unspecified)
 : nt, 0%, 5%, 157%, 14%, nt, ?, -3%[46.1 µM]
O=C(NC1CCN(Cc2ccccc2)CC1)c1ccc(Cn2c(=O)c3ccccc3n(Cc3ccc(Cl)cc3)c2=O)cc1
 : -1.3%, nt, nt, nt, -30%, -6%, -10%[46.1 µM], 1%[46.1 µM]
CC(C)c1nc(SCC(=O)c2ccccc2)c2c(=O)n(C)c(=O)n(C)c2n1
 : 0.5%, -1%, 5%, -10%, -24%, -4%, nt, nt
CCCc1cc(=O)[nH]c(Nc2cc(OC)ccc2OC)n1
 : -5.6%, 2%, 3%, ?, -22%, ?, -7%, -24%
CCNS(=O)(=O)c1ccc(OCCNS(C)(=O)=O)cc1
 : 2.4%, 1%, -19%, -22%, 11%, -16%, ?, -2%
COCc1c(C(=O)N/N=C(/C)c2ccccc2)nnn1-c1nonc1N
 : nt, -1%, -1%, 1%, -7%, nt, nt, nt
O=S(=O)(c1ccccc1)c1nc(Nc2cccc(O)c2)sc1Cl
 : -8.7%, -4%, -21%, 8%, 0%, 2%, ?, ?
O=C(CCSCCc1ccccn1)Nc1ccc(Br)cn1
 : 0.5%, 5%, -46%, 0%, 1%, 10%, 2%, 18%
N#Cc1c(N(CCO)CCO)nc(N)c2c(N)nc3c(c12)CC(=O)N3Cc1cccs1
 : nt, -1%, 12%, 25%, 11%, nt, nt, nt
O=C(CCC(=O)OCC(=O)c1ccc(F)cc1)NC1CCCCC1
 : 3.0%, 5%, -4%, -17%, 8%, 1%, 1%, 16%
COc1cc(/C=N/NC(=O)c2cccc(NC(=O)c3ccccc3Cl)c2)ccc1O
 : nt, 2%, nt, -14%, -13%, nt, -11%, 2%
NC(=O)c1ccc(NC(=O)COC(=O)CCCc2c[nH]c3ccccc23)cc1
 : nt, 1%, 0%, 4%, 6%, nt, nt, nt
CCc1ccc(C(=O)CC2(O)C(=O)N(CCc3ccccc3)c3ccc(Cl)cc32)cc1 (stereo unspecified)
 : -9.6%, nt, nt, nt, -11%, -3%, ?, ?
CN(C(=O)CSc1nc(N)nn1-c1ccccc1)c1ccccc1
 : 3.3%, 9%, -6%, 2%, -2%, -3%, nt, nt
CCOC(=O)C(=O)Nc1ccccc1C(=O)NCc1ccccc1
 : nt, 0%, -3%, -1%, 4%, nt, nt, nt
COc1ccc(OC)c(NC(=O)c2ccc(NC(C)=O)cc2)c1
 : -1.5%, 1%, -14%, -17%, -22%, -3%, -1%, -5%
CC(C)CNC(=S)N1CCN(c2nc(-c3ccc(Cl)cc3)cs2)CC1
 : nt, 3%, -10%, 3%, -29%, nt, 17%[46.1 µM], ?
Cc1cc(C)c2sc(NNC(=O)C3COc4ccccc4O3)nc2c1 (stereo unspecified)
 : 0.9%, -3%, -6%, 2%, -21%, ?, -24%, 6%
COc1cccc(NC(=O)CSc2nnc(Cn3c(=O)sc4ccccc43)n2C)c1
 : -4.3%, 9%, 1%, 6%, -8%, 5%, nt, nt
Cc1ccc(S(=O)(=O)N(C)C)cc1NC(=O)COC(=O)CNC(=O)c1cccs1
 : nt, 6%, nt, 3%, 2%, nt, 1%[46.1 µM], -19%
CCS(=O)(=O)N1CCC(NC(=O)C(Cc2cccc(OC)c2OC)NC(C)=O)CC1 (stereo unspecified)
 : nt, 11%, 27%, 5%, -4%, nt, 1%, ?
CCOC(=O)c1ccc(NC(=O)CSc2nc(N)c(NC(=O)c3ccc(Br)o3)c(=O)[nH]2)cc1
 : nt, -5%, 10%, 4%, 3%, nt, -19%, 16%
O=c1c2ccc(Cl)cc2nc(-c2cccc(C(F)(F)F)c2)n1O
 : 1.9%, -51%, -205%, -29%, ?, ?, 2.5µM*, ?
Cn1c(=O)cc(OCC(=O)NCc2cccnc2)c2ccccc21
 : -0.2%, -5%, 1%, -4%, 33%, -12%, 2%, -3%
CCCNC(=O)c1ccc2c(=O)n(Cc3ccco3)c(=S)[nH]c2c1
 : nt, 3%, 1%, 3%, -19%, nt, -3%, ?
CCOc1ccc(-c2noc(CCCC(N)=O)n2)cc1OC
 : 4.4%, 1%, 3%, -3%, -1%, 6%, 0%, 6%
Cc1cc(O)c(C(c2ccc(F)cc2)N2CCCCC2)c(=O)n1Cc1ccco1 (stereo unspecified)
 : 1.0%, nt, nt, nt, -13%, ?, 11%[46.1 µM], nt
O=C(CSc1nnc(-c2ccccc2)o1)Oc1ccc(Br)cc1
 : 2.2%, 3%, -3%, -8%, nt, ?, 1%, 3%
O=S(=O)(/N=C(\c1ccc(Cl)cc1)N1CCOCC1)c1ccccc1
 : -3.1%, -23%, -9%, 12%, 2%, -1%, 25%, 17%
CC(C)(C)[C@H]1CCC(=O)N([C@H](CN=[N+]=[N-])Cc2ccccc2)CC1
 : nt, 14%, -84%, -17%, -18%, nt, nt, nt
Cc1ccc2c(c1)c(-c1ccccc1)nc1nncn12
 : -0.9%, 7%, 1%, -4%, -9%, 9%, -16%, 0%
COC(=O)c1ccsc1NC(=O)CSc1nnnn1Cc1ccccc1
 : -4.4%, -11%, -19%, 2%, -20%, -8%, -22%, -12%
O=C(C1CCC(=O)N(C2CCCC2)C1)N1CCN(Cc2cccc(Cl)c2)CC1 (stereo unspecified)
 : nt, 3%, -1%, -1%, -7%, nt, -12%, 29%
COc1cccc(NC(=O)CN(C)C(C)C(=O)Nc2ccc(S(=O)(=O)N3CCCC3)cc2)c1 (stereo unspecified)
 : nt, 0%, -10%, 14%, -3%, nt, -5%, 8%[46.1 µM]
COc1ccc(-c2nn3c(-c4ccccc4)nnc3s2)cc1OC
 : -4.1%, 2%, -27%, -5%, -2%, ?, -1%, -23%
N#Cc1ccccc1NC(=O)c1cccc(COc2ccc(Cl)cc2Cl)c1
 : 7.3%, ?, 14%, 18%, -60%, ?, ?, ?
CC(=O)Nc1ccc(N2C(=O)CSC2c2ccc(F)cc2)cc1 (stereo unspecified)
 : 1.9%, 2%, -1%, -3%, -23%, 2%, -5%, -4%
O=c1cc(O)c(-c2ccc(Cl)c(Cl)c2)c(Cl)[nH]1
 : nt, 3%, nt, 8%, -8%, nt, ?, -17%[46.1 µM]
CCn1c(-c2ccsc2)nc2c1c(=O)[nH]c(=O)n2Cc1ccccc1
 : -0.4%, 4%, 6%, 11%, 0%, 13%, ?, -21%
CC(c1ccon1)N(C)C(=O)CCc1nnc(C2(c3ccc(Cl)cc3)CCC2)o1 (stereo unspecified)
 : nt, -1%, -5%, -1%, 50%[activator], nt, nt, nt
Cc1cccc(OCC(=O)Nc2ccc(N3CCCC3)cc2)c1C
 : ?, 0%, 18%, -5%, nt, 3.2µM*, 0%, -6%
CC(C(=O)NC1CC1)c1ncc(C(F)(F)F)cc1Cl (stereo unspecified)
 : nt, 1%, 9%, 8%, -14%, nt, -12%, -11%[46.1 µM]
Cc1ccccc1-n1c(SCC(=O)Nc2ccc(Cl)cc2Cl)nc(O)cc1=O
 : -29%, nt, nt, nt, -21%, 1%, -2%[46.1 µM], -25%[46.1 µM]
NC(=O)c1ccsc1NC(=O)COC(=O)[C@@H]1CCCN1C(=O)c1cccs1
 : nt, nt, nt, -7%, -18%, nt, 21%[46.1 µM], 4%[46.1 µM]
O=S(=O)(/N=C(/Nc1cccc2ccccc12)c1ccccc1)c1ccc(Br)cc1
 : nt, ?, 3%, 3%, 16%, nt, nt, nt
CCOC(=O)CC(NS(=O)(=O)c1ccc(OC)c(OC)c1)c1cccc([N+](=O)[O-])c1 (stereo unspecified)
 : -1.7%, -10%, -13%, 11%, 18%, 18%, 0%, -1%
O=C1CCN=C(Nc2ccc(F)cc2)N1Cc1ccccc1
 : 2.0%, 2%, -14%, 0%, -7%, -4%, 7%, 10%
CC(C)c1ccc(C(=O)NCCCN2CCN(CCCNC(=O)c3ccc(C(C)C)cc3)CC2)cc1
 : -4.4%, 0%, 1%, 0%, ?, ?, 11µM*, ?
COc1ccccc1N(C(=O)CNC(=O)c1ccco1)C(C(=O)NC1CCCCC1)c1ccncc1 (stereo unspecified)
 : nt, 0%, -9%, -5%, 30%, nt, -3%, 17%[46.1 µM]
